Bioassay records: PubChem, several laboratories
Beta apoptosis = inhibitors of cytokine-induced beta cell apoptosis, primary screen, luminescence. INS-1E cytokine-induced death, ATP luminescence, 48 h; percent of positive-control rescue, neutral wells zero. protection from apoptosis, % (no concentration beside the values). hit rate 0.8% among 300,000;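 active = all replicates at 75% or more, or half of them and the mean; inconclusive = half reach 75% but not the mean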;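 also: 0% = cytokine-treated negative control wells and 100% = positive control rescue; higher means more ATP so stronger rescue from cytokine killing; wells of about 40 µL received 100 nL stock; the first replicate is given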
Vif TR-FRET = inhibitors of Vif binding to APOBEC3G peptide, primary screen, biochemical, TR-FRET, GST-Vif 1-94, biotin-A3G peptide, dose response retest (AID 1117319); one-dose inhibition, %; IC50 in µM for titrated hits; hit rate 0.57% among 260,000; Virion infectivity factor (Human immunodeficiency virus type 1 group M subtype B (isolate …; TR-FRET GST-Vif / biotin-A3G peptide binding; higher % means a stronger effect; test concentration not given here; strong numbers were not always called active;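 active = above the screen mean plus three standard deviations and confirmed in dose response; inconclusive = results disagree or hit not tested in dose response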;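 also: Vif residues 1-94 fused to GST binding biotinylated APOBEC3G peptide 110-148; 0% = full assay without inhibitor and 100% = GST in place of GST-Vif; retest series ran down from 100 µM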
Calb FLC = C. albicans growth inhibition with fluconazole, primary screen, CaCi-2 strain, Alamar Blue fluorescence; C. albicans CaCi-2 (fluconazole-resistant clinical isolate) + fluconazole, 48 h; growth inhibition, % (concentration not given with the values); hit rate 0.57% among 300,000; AID 1979, 2009;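 active = most replicates above 75%; inconclusive = exactly half above 75%; inactive = most below 75%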;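 also: all wells also contain fluconazole at 8 µg/ml as a sub-toxic cotreatment; 0% = median of DMSO wells and 100% = median of geldanamycin control wells; wells of about 8 µL received 7.5 nL stock; the first replicate is given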
MLL AF4-AF9 inh = inhibitors of AF4 peptide binding to AF9, primary screen, biochemical, AlphaScreen, biotin-AF4 peptide, FLAG-AF9, single point | inhibition, % at 10 µM | hit rate 0.47% among 350,000 | Protein AF-9 (Homo sapiens), P42568;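 active = every replicate reaching a set inhibition limit, whatever the replicate mean, cut at about 25% in these data; inconclusive = mean inhibition reaches that limit but some replicates miss it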;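 also: 0% = plate neutral control median and 100% = total signal loss; the record names both 10 and 1 µM as test concentration; the first replicate is given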
Target sequence (P42568 whole entry, looked up): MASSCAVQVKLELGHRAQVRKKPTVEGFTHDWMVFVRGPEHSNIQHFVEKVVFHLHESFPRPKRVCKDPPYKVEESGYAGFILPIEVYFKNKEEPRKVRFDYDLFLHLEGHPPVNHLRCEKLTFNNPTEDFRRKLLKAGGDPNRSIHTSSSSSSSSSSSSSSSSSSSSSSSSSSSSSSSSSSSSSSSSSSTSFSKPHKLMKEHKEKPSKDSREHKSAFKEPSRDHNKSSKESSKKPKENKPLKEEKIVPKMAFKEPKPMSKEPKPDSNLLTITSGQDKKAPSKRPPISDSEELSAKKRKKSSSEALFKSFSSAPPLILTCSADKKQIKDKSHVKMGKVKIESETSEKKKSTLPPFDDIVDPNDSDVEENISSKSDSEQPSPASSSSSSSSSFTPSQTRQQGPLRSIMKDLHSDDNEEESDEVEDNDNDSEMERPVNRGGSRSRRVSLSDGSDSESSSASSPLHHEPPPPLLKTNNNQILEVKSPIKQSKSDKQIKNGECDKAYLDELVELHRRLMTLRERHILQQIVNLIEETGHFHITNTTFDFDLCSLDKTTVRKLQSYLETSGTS
RanGTP-Imp inh = inhibitors of RanGTP-importin-beta interaction, primary screen, biochemical, FRET, CFP-Ran, YFP-importin-beta, homogeneous | hit rate 1.1% among 300,000 | inhibition, % (concentration not given with the values) | AID 2216, 2009 | cell-free CFP-Ran/YFP-importin-beta FRET ratio | Ran GTPase (GTP-bound) - importin-beta complex;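 active = most replicates above 15%; inconclusive = exactly half above 15%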;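 also: 0% = DMSO wells and 100% = Ran loaded with GDP instead of GTP; wells of about 40 µL received 100 nL stock; the first replicate is given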
Ecoli rRNA inh = reduced GFP signal of wild-type E. coli, primary screen, bacterial rRNA inhibitor project, GFP/RFP fluorescence, OD600, single point. AID 720706, 2013. GFP signal change (wild-type ribosome), % (no concentration beside the values). hit rate 1.6% among 350,000. E. coli WT GFP vs humanized-ribosome RFP mutants, 24 h; stronger effect = lower value; DMSO median 0, no signal -100;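 active = significant combined selectivity score with lowered wild-type GFP, culture density cut under 30%, mutant RFP and density less affected; inactive = any of these conditions unmet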; also: one replicate is shown; some compounds called inactive have numbers as strong as hits
A1 inh = caspase 3/7 activation in MEF A1-2A-BIM cells, primary screen, A1 inhibitor project, cell-based, luminescence, HTS; Caspase-Glo 3/7 luminescence, 3 h; percent of clofoctol response, vehicle zero; caspase activation, % (test concentration not listed); hit rate 0.066% among 330,000;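 active = over half of replicate activation scores above 10%, or exactly half above 10 with the replicate mean above 10; inconclusive = replicate mean below 10 yet half the replicates above 10; inactive = over half of replicates below 10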;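 also: wells of about 30 µL received 50 nL stock; many hits fall short of the cut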
T cruzi repl = inhibitors of intracellular T. cruzi growth, primary screen, luminescence, NIH3T3 host cells. inhibition, % (concentration not given with the values). T. cruzi beta-gal in NIH3T3, 90 h. AID 1885, 2009. hit rate 1.4% among 300,000;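 active = mean inhibition across valid replicates above about 55%, limit read from the data; inconclusive = mean below that limit but half or more replicates reach it; inactive = mean below it, under half of replicates reach it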;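 also: signal also drops with host cell toxicity which is not excluded here; 0% = plate median of DMSO wells and 100% = zero luminescence signal; higher percent means less beta-gal luminescence so fewer parasites; stock transfer was 50 nL into about 50 µL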
Ecoli rRNA inh OD600 = further read-out of Ecoli rRNA inh, marked with its call; OD600 change, %; measured here: OD600 growth;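 optical density of the mix in the first replicate; 0 = DMSO median and -100 = no signal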
Ecoli rRNA inh RFP = also measured in Ecoli rRNA inh; calls as there; RFP signal change, %; measured here: RFP humanized mutant strains;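 first replicate; 0 = DMSO median and -100 = no signal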
Starred values were filed as active, the others as inactive; ? = inconclusive; . = not tested or not shown. An excerpt; count on the stated rates, not on these rows.

SMILES	Beta apoptosis	Vif TR-FRET	Calb FLC	MLL AF4-AF9 inh	RanGTP-Imp inh	Ecoli rRNA inh	Ecoli rRNA inh OD600	Ecoli rRNA inh RFP	A1 inh	T cruzi repl
O=C(CCn1c(=O)sc2ccccc21)Nc1ccon1	-10	2%	3	-11	0.5	15	4	2.2	-0.2	-11
COC(=O)c1ccc(/C=C2/SC(=S)N(CCC(=O)N3CCOCC3)C2=O)cc1	-20	.	-16	5.6	6.7	-3	10	-0.7	1.2	-14
O=C(c1cc2nc(-c3ccco3)cc(C(F)(F)F)n2n1)N1CCN(c2ccccn2)CC1	7	6%	2	.	5.7	.	.	.	0.1	-17
COc1ccc2c(c1)C(=O)N(c1ccc(C)cc1)C(=O)C2	-6	1%	-15	.	-1.8	.	.	.	-0.2	-2
CCn1cc(CCC(=O)NCc2ccc(F)cc2)c2ccccc21	-3	0%	-5	2.0	0.5	-12	-12	4.5	0.6	11
c1cc(Nc2ncnc3sc4c(c23)CCC4)ccn1	-16	9%	-1	-1.9	-1.4	18	6	-2.7	1.6	-4
COc1ccc(NC(=S)N2CCN(S(C)(=O)=O)CC2)cc1	0	.	-11	-1.0	1.3	15	11	0.1	-1.1	6
O=C(CN1CCN(S(=O)(=O)c2ccc(Br)cc2)CC1)N/N=C/c1ccncc1	-5	15%	-3	3.4	-2.3	4	-5	-1.9	0.0	-10
CC(Sc1nnc(-c2cccs2)n1-c1ccccc1)C(=O)NCc1ccco1 (stereo unspecified)	-2	-3%	23	.	4.0	.	.	.	-0.3	2
CC1=C(C(=O)Nc2ccccc2)C(c2cccs2)C(C#N)=C(SCC#N)N1 (stereo unspecified)	-1	-3%	4	.	-3.2	.	.	.	1.2	1
Cc1cc(S(=O)(=O)NCc2ccc(N3CCN(C)CC3)cc2)c(C)s1	.	?	-22	-2.3	-3.7	2	1	-8.0	0.4	23
CN(C)CCNS(=O)(=O)c1ccc(N2CCc3ccccc32)c([N+](=O)[O-])c1	1	.	-1	11	0.8	-8	1	-0.2	0.2	42
C=CCn1c(SCC(=O)c2c(N)n(C)c(=O)n(C)c2=O)nnc1-c1ccncc1	.	0%	6	-13	2.4	21	24	3.0	0.2	-9
O=C(Nc1ccc(OCC(F)(F)C(F)F)c(C(F)(F)F)c1)c1ccc(Cl)cc1	79*	-1%	15	.	-3.7	.	.	.	0.4	48
O=C(NCCOCCOCCNC(=O)c1cccnc1)c1cccnc1	120*	1%	0	.	?	.	.	.	1.3	1

Complete entries, looked up by structure.
Cc1cc(S(=O)(=O)NCc2ccc(N3CCN(C)CC3)cc2)c(C)s1 in the list: Beta apoptosis: .; Vif TR-FRET: ?; Calb FLC: -22; MLL AF4-AF9 inh: -2.3; RanGTP-Imp inh: -3.7; Ecoli rRNA inh: 2; Ecoli rRNA inh OD600: 1; Ecoli rRNA inh RFP: -8.0; A1 inh: 0.4; T cruzi repl: 23
CC1=C(C(=O)Nc2ccccc2)C(c2cccs2)C(C#N)=C(SCC#N)N1 (stereo unspecified) in the list: Beta apoptosis: -1; Vif TR-FRET: -3%; Calb FLC: 4; MLL AF4-AF9 inh: .; RanGTP-Imp inh: -3.2; Ecoli rRNA inh: .; Ecoli rRNA inh OD600: .; Ecoli rRNA inh RFP: .; A1 inh: 1.2; T cruzi repl: 1

Next part:
SMILES	Beta apoptosis	Vif TR-FRET	Calb FLC	MLL AF4-AF9 inh	RanGTP-Imp inh	Ecoli rRNA inh	Ecoli rRNA inh OD600	Ecoli rRNA inh RFP	A1 inh	T cruzi repl
Cc1cc(C)nc(CCNC(=O)CC2C(=O)NCCN2Cc2ccc(F)cc2Cl)n1 (stereo unspecified)	-2	-2%	5	-1.0	-7.7	6	6	-1.0	0.0	-3
Cc1sc2ncnc(N3CCN(c4ncccn4)CC3)c2c1C	5	-5%	-5	.	0.5	.	.	.	0.4	-8
CC(C)C(NS(=O)(=O)c1ccc2c(c1)C(C)(C)C(=O)N2C)C(=O)NCc1ccccc1Cl (stereo unspecified)	3	.	8	-9.3	?	-10	-20	0.7	0.1	0
CS(=O)(=O)N(CC(=O)Nc1ccc2c(c1)OCO2)c1ccc(Cl)cc1	-9	5%	-8	.	2.6	.	.	.	-0.4	2
Cc1c(CC(=O)NCC(=O)NCC(=O)O)c(=O)oc2cc3oc4c(c3cc12)CCCC4	11	.	10	-1.6	6.0	4	4	-0.2	0.3	-4
Cc1ccccc1CN(C)C(=O)[C@H](Cc1ccccc1)NC(=O)c1ccco1	0	-3%	.	0.4	.	-4	-26	-2.9	1.6	.
O=C(Nc1ccc2c(c1)OCCO2)c1cnc2n(c1=O)CCS2	0	-1%	-1	-2.6	1.3	8	4	-2.3	-3.8	-3
CC1=NCCN1S(=O)(=O)c1cccc([N+](=O)[O-])c1	1	2%	27	2.4	1.0	8	7	-0.8	0.1	7
CCN(CC(=O)NCc1ccc(Cl)cc1)C(=O)CCC(=O)c1ccc(F)cc1	0	-1%	-3	-0.7	-4.4	1	5	0.8	1.6	-5
COc1ccc(NS(=O)(=O)c2ccc3c(c2)N(C(C)=O)CC(C)S3)c(OC)c1 (stereo unspecified)	4	5%	35	4.0	-0.6	0	0	-2.2	-1.8	3
COc1cccc(NC(=O)c2cc3c(=O)n4ccccc4nc3n(CC(C)C)c2=N)c1	-1	-2%	3	-6.0	5.1	6	9	0.5	-1.3	10
Clc1cccc(-c2ccc(CNCc3ccccn3)o2)c1	-1	.	3	9.5	5.6	-10	-3	7.1	-0.7	-3
COc1ccc(CCN2C(=O)CC(N3CCC(C(N)=O)CC3)C2=O)cc1OC (stereo unspecified)	1	1%	-3	-2.7	-0.5	8	-3	-1.3	-0.4	0
CCOC(=O)C1(Cc2ccccc2)CCCN(CCCn2cccn2)C1 (stereo unspecified)	-7	-6%	-15	-2.8	7.7	21	9	-0.3	-0.5	0
C[C@@H](C(=O)Nc1nccs1)N1C(=O)C2CC=CCC2C1=O (stereo partly specified)	-5	-3%	.	-1.9	.	3	-1	-2.6	0.2	.

3 of the compounds above, in CSV form.
Compound,Beta apoptosis,Vif TR-FRET,Calb FLC,MLL AF4-AF9 inh,RanGTP-Imp inh,Ecoli rRNA inh,Ecoli rRNA inh OD600,Ecoli rRNA inh RFP,A1 inh,T cruzi repl
O=C(Nc1ccc2c(c1)OCCO2)c1cnc2n(c1=O)CCS2,0,-1%,-1,-2.6,1.3,8,4,-2.3,-3.8,-3
CC1=NCCN1S(=O)(=O)c1cccc([N+](=O)[O-])c1,1,2%,27,2.4,1.0,8,7,-0.8,0.1,7
CCN(CC(=O)NCc1ccc(Cl)cc1)C(=O)CCC(=O)c1ccc(F)cc1,0,-1%,-3,-0.7,-4.4,1,5,0.8,1.6,-5

The list continues:
SMILES	Beta apoptosis	Vif TR-FRET	Calb FLC	MLL AF4-AF9 inh	RanGTP-Imp inh	Ecoli rRNA inh	Ecoli rRNA inh OD600	Ecoli rRNA inh RFP	A1 inh	T cruzi repl
CC1(C)CC(=O)C2=C(C1)N1CCCCC1CC2=O (stereo unspecified)	-2	16%	-3	.	?	.	.	.	0.5	-3
CN(CCO)C(=O)C(c1ccccc1)c1ccccc1	-3	2%	6	-2.7	7.1	-9	-16	-7.0	0.0	-13
COC(=O)c1nnn(CC(=O)Nc2ccc(C)c(F)c2)c1C(=O)OC	-11	1%	-13	.	7.8	.	.	.	0.1	-13
O=C(O)C1CCCCN1S(=O)(=O)c1ccc(Cl)s1 (stereo unspecified)	.	-1%	1	-5.4	1.7	5	10	-1.6	0.1	-1
Cc1ccc(OCC(=O)NNC(=S)NCc2ccccc2)cc1	-4	12%	6	-0.7	4.0	-11	-18	-1.6	0.6	9
Cc1ccc(C)c(N(CC(=O)Nc2ccccc2C(=O)NCc2ccco2)S(=O)(=O)c2ccccc2)c1	2	22%	26	.	2.5	.	.	.	-0.1	28
Cc1ccc(N(C)S(=O)(=O)c2cccc(C(=O)N3CCN(Cc4ccccc4)CC3)c2)cc1	-8	.	.	1.4	.	-2	-37	-2.1	1.0	.
Cc1ccc(C(=O)CSc2nnc(-c3ccco3)n2Cc2ccccc2)cc1	5	-8%	1	.	0.5	.	.	.	-0.2	13
Cc1cc(=O)oc2cc(OCC(=O)Nc3ccccc3C(N)=O)c(Cl)cc12	6	.	2	2.4	-1.4	-2	3	-2.8	0.0	1
CN(C)S(=O)(=O)c1cc(NC(=O)CNCc2ccccc2)ccc1Cl	0	.	-8	-2.6	-1.6	2	1	0.1	0.5	18
CCc1ccc(OCC(=O)N/N=C(\C)c2ccc(OC(F)F)cc2)cc1	-12	.	3	-1.9	1.3	-6	6	0.2	0.7	-33
O=C1c2ccccc2C(=O)N1CCN1CCCCC1	-3	-7%	6	.	1.5	.	.	.	-0.3	-17
COc1ccc([C@H]2CC(=O)C=C(c3ccc(OC)nc3)C2)cc1	2	.	.	-7.1	.	-17	-18	-11	0.2	.
O=C(c1ccc(S(=O)(=O)NCc2ccco2)cc1)N1CCCC(C(F)(F)F)C1 (stereo unspecified)	2	8%	0	-0.9	-2.0	0	5	0.0	1.0	7
Cc1cc(=O)cc(C)[nH]1	-1	1%	3	.	-0.9	.	.	.	0.6	7
CCc1nnc(NC(=O)CSc2nc3cccnc3n2Cc2ccccc2)s1	-4	-11%	-10	.	3.1	.	.	.	-0.7	-1
CCNC(=S)NS(=O)(=O)c1ccccc1	-6	1%	-5	.	-1.3	.	.	.	-0.1	-8
CN(C)c1ccc(NC(=O)CCCc2ccccc2)cc1	-4	?	-59	.	-3.0	.	.	.	-1.4	-2
O=C(CN(Cc1ccccc1)C(=O)CCl)c1cccc(Br)c1	10	.	.	-1.7	.	-20	-13	11	-0.2	.
CC(C)C[C@H](NC(=O)c1nc[nH]c1C(=O)N(C)Cc1ccccc1)C(=O)OCc1ccccc1	1	-9%	0	4.6	1.6	-14	-19	25	-0.1	-10

Grouped by structure: the compounds so far with bromine.
SMILES	Beta apoptosis	Vif TR-FRET	Calb FLC	MLL AF4-AF9 inh	RanGTP-Imp inh	Ecoli rRNA inh	Ecoli rRNA inh OD600	Ecoli rRNA inh RFP	A1 inh	T cruzi repl
O=C(CN1CCN(S(=O)(=O)c2ccc(Br)cc2)CC1)N/N=C/c1ccncc1	-5	15%	-3	3.4	-2.3	4	-5	-1.9	0.0	-10
O=C(CN(Cc1ccccc1)C(=O)CCl)c1cccc(Br)c1	10	.	.	-1.7	.	-20	-13	11	-0.2	.
